# High-throughput results: PubChem BioAssay, National Center for Advancing Translational Sciences (NCATS)
# Menin MLL FP FL: qHTS Assay for Inhibitors Targeting the Menin-MLL Interaction in MLL Related Leukemias: Competition With Fluorescein Labeled MLL-derived Peptide | 290,000 tested, under 10 active | FP activity change, % at 61.4 µM | Fluorescence polarization, fluorescein-MLL peptide displacement from menin; inconclusive = falling polarisation curve, or a change in total fluorescence; inactive = total fluorescence flat and polarisation flat or rising; no compound was filed as active; the % refers to the polarisation; negative = inhibition;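 further: % of control where 0% means no effect; inhibitors lower the polarisation; unlabelled MLL peptide was the positive control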
# ClpP mod: qHTS Assay for Activators of ClpP; purified B. subtilis ClpP, FRET peptide cleavage, 20 min; ATP-dependent Clp protease proteolytic subunit (Bacillus subtilis (strain 168)), P80244; Potency, µM (series often up to 57.5 µM), inactives show at the highest dose activity change, negative = active; 1.9% of 340,000 active; active = well fitted falling curve with a large enough effect; inconclusive = small, poorly fitted or top-dose-only effect; inactive = no such curve, though single readings can be large or run the other way; further: potency means the concentration at half of the fitted maximal effect; the source files actives as falling curves though it sought activators and does not explain the sign; nearly all actives have a fitted effect of over 65% in size; many hits overshoot -100%
# Target sequence (P80244 whole entry, looked up): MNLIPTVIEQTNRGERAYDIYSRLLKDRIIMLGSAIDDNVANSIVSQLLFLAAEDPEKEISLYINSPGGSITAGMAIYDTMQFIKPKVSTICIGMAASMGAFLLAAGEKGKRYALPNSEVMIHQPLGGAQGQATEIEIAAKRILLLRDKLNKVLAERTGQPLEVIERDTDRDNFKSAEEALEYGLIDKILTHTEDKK
#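 FRET quenching reversal measured ClpP activation: 10 microg/mL B. subtilis ClpP at pH 8 with the FRET-FV decapeptide, read at 430 nm after 320 nm excitation. The 20-min minus 0-min signal was scaled between DMSO/no-enzyme wells and ADEP (5.8 microM final).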
# gsp antag: qHTS for Antagonists of gsp, the Etiologic Mutation Responsible for Fibrous Dysplasia/McCune-Albright Syndrome: qHTS; 0.4% of 340,000 active; gsp-mutant cells, cAMP HTRF, 30 min; control for the full effect not named in the record; AID 624288, 2012; Potency, µM (titrated, usually from 76.9 µM), inactives show at the highest dose activity change, negative = inhibition, most hits filed as inhibitors; active = falling curve of any shape with a large fitted effect; inconclusive = falling curve, mostly with a smaller effect; inactive = flat or rising curve; cell line not stated here;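 further: intracellular cAMP measured with PDE inhibitor Ro 20-1724 present during compound exposure; potency means the concentration at half of the fitted maximal effect; on the % scale 0 is the no-effect control and ±100 the full control effect; nearly all actives have a fitted effect of over 65% in size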
#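 HTRF cAMP read-out (cAMP-d2 plus anti-cAMP antibody-K in lysis buffer, 30 min RT). Before lysis, cells are exposed to compounds with […] for 30 min at 37C in DPBS containing Ca/Mg, BSA and Tween 20.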
# TRPV1 PAM: HTS Assay for Compounds that Act as Potentiators of the Vanilloid Receptor 1. potentiation, % at 8.33 µM. 0.02% of 320,000 active. TRPV1-expressing cells, Fluo-8 calcium influx, capsaicin EC20 potentiation; host cell line not named in the record; control for the full effect not named in the record. Transient receptor potential cation channel subfamily V member 1 (Homo sapiens), Q8NER1; active means potentiation above 80%; inconclusive means 30% to 80%; inactive means below 30%; further: 0% is about no effect
# Target sequence (Q8NER1 whole entry, looked up): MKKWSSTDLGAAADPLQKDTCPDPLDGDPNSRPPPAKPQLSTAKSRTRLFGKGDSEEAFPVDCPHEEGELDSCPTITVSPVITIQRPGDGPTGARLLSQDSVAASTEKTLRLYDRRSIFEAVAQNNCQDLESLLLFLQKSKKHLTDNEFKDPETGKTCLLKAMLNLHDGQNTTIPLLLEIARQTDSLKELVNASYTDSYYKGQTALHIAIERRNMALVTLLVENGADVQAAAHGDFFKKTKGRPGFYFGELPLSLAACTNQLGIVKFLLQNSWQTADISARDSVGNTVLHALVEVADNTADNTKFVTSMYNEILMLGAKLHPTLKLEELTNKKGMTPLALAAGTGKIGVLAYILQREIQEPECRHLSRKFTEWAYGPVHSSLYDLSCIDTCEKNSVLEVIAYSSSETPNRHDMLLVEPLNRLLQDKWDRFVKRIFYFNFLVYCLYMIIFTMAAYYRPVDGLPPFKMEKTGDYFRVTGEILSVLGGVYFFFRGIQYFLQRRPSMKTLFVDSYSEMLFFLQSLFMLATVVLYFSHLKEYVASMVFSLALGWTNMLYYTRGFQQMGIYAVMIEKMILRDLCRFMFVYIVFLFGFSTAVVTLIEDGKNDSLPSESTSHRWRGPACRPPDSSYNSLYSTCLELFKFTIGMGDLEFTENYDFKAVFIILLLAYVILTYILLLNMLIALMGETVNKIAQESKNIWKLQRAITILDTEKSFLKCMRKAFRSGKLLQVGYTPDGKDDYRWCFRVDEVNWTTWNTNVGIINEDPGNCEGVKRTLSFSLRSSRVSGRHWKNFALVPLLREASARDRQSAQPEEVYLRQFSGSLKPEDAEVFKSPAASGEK
#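 Cells expressing TRPV1 were dye-loaded with Fluo-8 and read kinetically: 10 s baseline, 3 min after compound (agonist portion), then 2 min after EC20 capsaicin (allosteric enhancer portion). Calcium-bound dye fluorescence at 480/520 nm.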
# gsp agonist: qHTS for Agonist of gsp, the Etiologic Mutation Responsible for Fibrous Dysplasia/McCune-Albright Syndrome: qHTS. gsp mutant cells, cAMP HTRF, 30 min; control for the full effect not named in the record. Potency, µM (doses to about 76.9 µM), inactives show at the highest dose activation (cAMP increase), hits mostly activators. 0.13% of 340,000 active. AID 624287, 2012; active = well fitted activation curve with a large enough effect; inconclusive = small, poorly fitted or top-dose-only effect, or another doubt; inactive = no such curve, though single readings can be large or run the other way; cell line not stated here;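 further: phosphodiesterase inhibitor Ro 20-1724 added with compounds to block cAMP breakdown; potency means the concentration at half of the fitted maximal effect; nearly all actives have a fitted effect of over 60% in size; about a fifth of the inactives were tested at one dose only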
#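 Cells in DMEM/10% FBS with G418 were pretreated with compounds in DMSO plus […] (300 uM stock) for 30 min at 37C. cAMP was measured by HTRF (cAMP-d2 plus anti-cAMP antibody-K) after 30 min at room temperature.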
# Sfp PPTase inh: qHTS Assay for Inhibitors of Bacillus subtilis Sfp phosphopantetheinyl transferase (PPTase); 4'-phosphopantetheinyl transferase ffp (Bacillus subtilis), Q9F4F7; Biochemical Sfp PPTase activity, qHTS; Potency, µM, inactives show max response, negative = inhibition, hits mostly inhibitors; 3.5% of 310,000 active; AID 1490, 2009; active means well fitted inhibition curve with a large enough effect; inconclusive means small, poorly fitted or top-dose-only effect, or another doubt; inactive means no such curve, though single readings can be large or run the other way;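 further: the enzyme is Sfp with the accession as filed and its product quenches rhodamine fluorescence; potency means the concentration at half of the fitted maximal effect; 0% = enzyme reaction without inhibitor and -100% = no enzyme wells; top concentration of the series not given in the record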
#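 After 15 min at room temperature with compound, 15 nM Sfp received 5 uM rhodamine-CoA plus 12.5 uM BHQ-2-ybbR (50 mM Hepes pH 7.6, 10 mM MgCl2). Rate came from the fluorescence difference over 30 min, ex 525/em 598 nm.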
# CtBP-E1A inh: qHTS Assay for Inhibitors of the CtBP/E1A Interaction; AlphaScreen GST-E1A/His-CtBP binding, 1536-well; hits give low values; control for the full effect not named in the record; 0.49% of 340,000 active; CtBP / adenovirus E1A interaction (AlphaScreen); activity change, % (concentration not given with the values); in the data active means activity change below about -65%; inconclusive means about -30% to -65%; inactive means above about -30%; further: on the % scale 0 is the no-effect control and ±100 the full control effect
#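 Steps: dispense buffer (Tris pH 8.0, NaCl 300 mM, TCEP 1 mM, BSA, Tween 20); add 5X protein mix (GST-E1A, His-CtBP, 125 nM each); pin 23 nL compound; 2 h at 37 °C, dark; add 5X beads (50 ug/mL); 1 h; read.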
# An asterisk follows results filed as active; ? = inconclusive; · = not tested or not shown; & = joins results of further samples; [ ] = dose if it differs, or a comment.
# Field names: A = Menin MLL FP FL; B = ClpP mod; C = gsp antag; D = TRPV1 PAM; E = gsp agonist; F = Sfp PPTase inh; G = CtBP-E1A inh
NC(=O)[C@@H]1CCCNc2c(F)cc([N+](=O)[O-])cc2C(=O)N[C@@H](CO)C(=O)N[C@@H](Cc2ccc(O)cc2)C(=O)N1
  A: -0.2 | B: -0.1% | C: 9% | D: 19 | E: -10% | F: -4% | G: -1
CC(CN1CCCCC1)OC(=O)c1ccccc1F (configuration not stated)
  A: -8.9 | B: 0.0% | C: 1% | D: -16 | E: 0% | F: 20% | G: ·
COc1ccc(C(=O)N2CCC(C(=O)N3CCN(c4ccccc4)CC3)CC2)cc1
  A: · | B: 1.7% | C: -8% | D: · | E: -8% | F: · | G: 5
Cc1ccc2c(c1)COc1c3ccc(C(=O)N4CCOCC4)cc3nn1-2
  A: 2.1 | B: 5.0% | C: 0% | D: 5 | E: · | F: -9% | G: 3
CCOC(=O)N1CCN(S(=O)(=O)c2ccc3c(c2)NC(=O)CO3)CC1
  A: · | B: · | C: -27% | D: · | E: 1% | F: · | G: 4
CCC(=O)N(Cc1ccco1)C1CC(=O)N(c2ccccc2)C1=O (configuration not stated)
  A: 0.3 | B: -3.0% | C: -2% | D: -1 | E: 28% | F: 13% | G: 1
CC1CCCCN1C(=O)C(Cc1ccccc1)N1C(=O)C2CCCCC2C1=O (configuration not stated)
  A: 4.9 | B: 1.9% | C: 0% | D: -11 | E: 0%[15.4 µM] | F: 10% | G: 5
CCCCc1cc2c(cn1)=C(OC(=O)c1cnc3ccccc3n1)C(C)(OC(=O)CC)C(=O)C=2 (configuration not stated)
  A: 2.6[11.7 µM] | B: -1.3% | C: -11% | D: ? | E: · | F: -6%&-10% | G: -2
COc1cc2ccccc2cc1C(=O)N1CCN(C)CC1
  A: -9.2 | B: ? | C: 8% | D: 16 | E: 2% | F: -16% | G: 1
CCCOC1OC(=O)c2c1ccc(OC)c2OC (configuration not stated)
  A: -1.4 | B: 0.7% | C: 20% | D: 4 | E: 10%[15.4 µM] | F: 11% | G: 16
O=C(NCCc1c[nH]c2ccccc12)C(=O)NCC1OCCCN1S(=O)(=O)c1cc(F)ccc1F (configuration not stated)
  A: 0.7 | B: · | C: -15% | D: 1 | E: -7%[15.4 µM] | F: 15% | G: -4
CSc1cc(-c2ccc(Cl)cc2)[nH]c(=O)c1C#N
  A: 1.0 | B: 3.5% | C: -8% | D: -5 | E: -21% | F: 6% | G: ·
COc1ccc(OCC(O)Cn2c(Nc3cccc(C)c3)nc3c2c(=O)n(C)c(=O)n3C)cc1 (configuration not stated)
  A: 0.3 | B: -0.9% | C: -32% | D: -11 | E: 6%[15.4 µM] | F: -1% | G: -8
O=C(Cc1ccc(-n2c(=O)c3ccccc3n(CC(=O)Nc3ccc(F)cc3F)c2=O)cc1)NCc1ccco1
  A: 4.8 | B: -17% | C: 4% | D: 2 | E: -1% | F: -1% | G: 4
Cc1nn(-c2ccccc2)c(C)c1-c1ccccc1O
  A: -0.1 | B: -0.9% | C: 1% | D: 0 | E: 0% | F: 3% | G: -6
O=C(NNC(=O)C1C2C=CC(C2)C1C(=O)O)c1ccccc1 (configuration not stated)
  A: 4.9 | B: · | C: 2% | D: -11 | E: 7% | F: ? | G: 6
CC(Sc1nncn1C)C(=O)Nc1ccc(Cl)cn1 (configuration not stated)
  A: -0.5 | B: -3.0% | C: -1% | D: -8 | E: 0%[15.4 µM] | F: 8% | G: 0
O=C(Nc1ncccn1)c1cc(-c2ccc(F)cc2)nc2ccccc12
  A: -3.7 | B: · | C: -27% | D: -19 | E: 28% | F: 1% | G: -25
C=CCn1c(C2CCCCC2)n[nH]c1=S
  A: -0.1 | B: -1.8% | C: 4% | D: -4 | E: -1%[15.4 µM] | F: 10% | G: -3
CCOC(=O)C1(CC2CC2)CCN(Cc2ccc(OC)cc2F)CC1
  A: 4.0 | B: · | C: 14% | D: -14 | E: 6%[15.4 µM] | F: -13% | G: -4
Cc1ccc(OCc2n[nH]c(=S)n2-c2ccc(Br)cc2)cc1
  A: -3.7 | B: -1.5% | C: -23% | D: 4 | E: -36%[inhibitor] | F: 16% | G: ·
Cn1c(=O)[nH]c(=O)c2c1nc(Br)n2CCC(=O)c1ccccc1
  A: -0.9 | B: 28µM* | C: 1% | D: -12 | E: 7% | F: -7% | G: 3
CC1CC2=C(C(=O)O1)C(c1ccc(Cl)cc1)Nc1ccccc1N2 (configuration not stated)
  A: 2.7 | B: -1.3% | C: 1% | D: -9 | E: 8%[15.4 µM] | F: 22% | G: -25
CCOC(=O)c1c(NC(=S)NC(C)=O)sc(C)c1C
  A: -0.1 | B: 0.4% | C: 2% | D: 6 | E: 35% | F: -3% | G: -6
Oc1ccc(Cc2ncc(C(F)(F)F)cc2Cl)cc1
  A: -0.9 | B: · | C: 1% | D: -21 | E: -27% | F: 9% | G: -2

# Entries of single compounds, looked up by structure. Values in the order: Menin MLL FP FL | ClpP mod | gsp antag | TRPV1 PAM | gsp agonist | Sfp PPTase inh | CtBP-E1A inh
# CCCOC1OC(=O)c2c1ccc(OC)c2OC (configuration not stated) across the screens: -1.4 | 0.7% | 20% | 4 | 10%[15.4 µM] | 11% | 16
# CSc1cc(-c2ccc(Cl)cc2)[nH]c(=O)c1C#N across the screens: 1.0 | 3.5% | -8% | -5 | -21% | 6% | ·
# COc1ccc(C(=O)N2CCC(C(=O)N3CCN(c4ccccc4)CC3)CC2)cc1 across the screens: · | 1.7% | -8% | · | -8% | · | 5
# Cn1c(=O)[nH]c(=O)c2c1nc(Br)n2CCC(=O)c1ccccc1 across the screens: -0.9 | 28µM* | 1% | -12 | 7% | -7% | 3
# O=C(NCCc1c[nH]c2ccccc12)C(=O)NCC1OCCCN1S(=O)(=O)c1cc(F)ccc1F (configuration not stated) across the screens: 0.7 | · | -15% | 1 | -7%[15.4 µM] | 15% | -4

# Remaining list, next part:
# Field names: A = Menin MLL FP FL; B = ClpP mod; C = gsp antag; D = TRPV1 PAM; E = gsp agonist; F = Sfp PPTase inh; G = CtBP-E1A inh
Cc1ccn(C(C)CC(=O)N2CCc3ccccc32)n1 (configuration not stated)
  A: -3.4 | B: 0.6% | C: 0% | D: 2 | E: 21% | F: 15% | G: ·
CNC(=O)/C=C1\NC(C)(C)Cc2c1ccc1ccccc21
  A: 0.4 | B: 2.7% | C: -7% | D: -9 | E: -14% | F: -3% | G: 0
Cn1ccnc1C(=O)c1ccc(N)cc1
  A: -1.6 | B: · | C: 7% | D: 5 | E: 26%[15.4 µM] | F: 12% | G: 1
CN(CC(=O)Nc1ccc(F)c(F)c1F)C1CCCCC1
  A: 1.7 | B: -0.7% | C: 6% | D: 1 | E: -29% | F: 3% | G: 3
CCN(Cc1cnn(C)c1)C(=O)c1cc(COc2ccc(F)cc2F)on1
  A: 1.6 | B: -0.4% | C: 8% | D: 7 | E: -2% | F: -4% | G: 3
CC1(C)C2C/C(=N\O)C(C)(/[N+]([O-])=C/c3cccc([N+](=O)[O-])c3)CC21 (configuration not stated)
  A: -1.8 | B: · | C: · | D: 8 | E: 0%[15.4 µM] | F: -6% | G: 23
COc1ccc(CCNC(=O)CN2CCOc3ccccc32)cc1OC
  A: -2.0 | B: 1.1% | C: 2% | D: -2 | E: -4% | F: 3% | G: 3
CC(C)c1ccc(/C=N/NC(=O)CN(c2cccc(Cl)c2Cl)S(C)(=O)=O)cc1
  A: 1.3 | B: ? | C: -6% | D: 4 | E: -7% | F: 10% | G: -5

# Three entries already listed, sorted by length of the SMILES, largest number first:
# Field names: A = Menin MLL FP FL; B = ClpP mod; C = gsp antag; D = TRPV1 PAM; E = gsp agonist; F = Sfp PPTase inh; G = CtBP-E1A inh
CC(C)c1ccc(/C=N/NC(=O)CN(c2cccc(Cl)c2Cl)S(C)(=O)=O)cc1
  A: 1.3 | B: ? | C: -6% | D: 4 | E: -7% | F: 10% | G: -5
CCN(Cc1cnn(C)c1)C(=O)c1cc(COc2ccc(F)cc2F)on1
  A: 1.6 | B: -0.4% | C: 8% | D: 7 | E: -2% | F: -4% | G: 3
COc1ccc(CCNC(=O)CN2CCOc3ccccc32)cc1OC
  A: -2.0 | B: 1.1% | C: 2% | D: -2 | E: -4% | F: 3% | G: 3

# An unsorted share of the library; about 5.3% have a hit in one of these screens.
